# Screens: PubChem BioAssay, Southern Research Specialized Biocontainment Screening Center
# quorum sensing – Vibrio cholerae quorum sensing activators, luminescence (AID 686977); V. cholerae quorum sensing reporter, luminescence, 6 h; higher luminescence means a stronger effect; most inactives read 0; luminescence at 50 µM unless noted, or EC50 in µM where a hit was titrated; 9,400 tested, under 10 active;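 active = light above mean plus 3 SD and confirmed in a dose series; inconclusive = above that limit without a clear retest; inactive = below it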;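 note: raw light counts without normalisation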
# The depositor's hits bear a star; ? = inconclusive; [ ] = dose if it differs, or a comment.
Molecule	quorum sensing
CCOC(=O)OC(C)OC(=O)[C@@H]1N2C(=O)[C@@H](NC(=O)[C@H](N)c3ccccc3)[C@H]2SC1(C)C (stereo partly drawn)	0[10 µg/mL]
O=C(Nc1ccc(S(=O)(=O)Nc2ncccn2)cc1)c1ccc(Br)s1	40
N#CCCN1CCN(S(=O)(=O)c2ccc(S(=O)(=O)N3CCCCCC3)cc2)CC1	0
O=C(Nc1ccc2c(c1)OCO2)C1CCN(S(=O)(=O)Cc2ccccc2)CC1	0
CSc1cccc(-n2cc(-c3ccc4c(c3)OCO4)[nH]c2=O)c1	880
COc1cc(C(c2sc3ncnn3c2O)N2CCN(c3ccccc3F)CC2)cc(OC)c1OC (stereo not drawn)	0
O=C(Nc1ccc(Br)cc1F)C1CCCN(S(=O)(=O)c2cnc[nH]2)C1 (stereo not drawn)	0
Cc1cccc(N(C)C(=S)Oc2ccc3ccccc3c2)c1	320[10 µg/mL]
O=C(COC(=O)c1ccccc1NC(=O)c1ccco1)NCCC1=CCCCC1	40
COc1cc2cc(/C=C/C(=O)c3ccco3)c(Cl)nc2cc1OC	0
Cc1cccc(-n2ncc3c(NCCCn4ccnc4)ncnc32)c1	40
Cc1c2ccncc2c(C)c2c1[nH]c1ccccc12	0[10 µg/mL]
O=C(COc1ccc2ccccc2c1)N1CCCC1	0
O=C(NCc1ccccc1)c1cc(S(=O)(=O)N2CCOCC2)ccc1F	0
Cc1nc2ccccc2n1CCC(=O)Nc1cccc(F)c1	0
CCSc1nnc(NC(=O)CSc2nnc(-c3c[nH]c4ccccc34)n2C)s1	40
COc1ccc(-c2nc(CSCC(=O)N3CCC(C(N)=O)CC3)c(C)o2)cc1OC	0
Cc1cccc(C)c1-n1c(C)cc(/C=C2\C(=O)NN(c3ccccc3)C2=O)c1C	0
Cc1c(/C=N/NC(=O)c2cc(=O)[nH]c(=O)[nH]2)c2ccccn2c1C(=O)c1ccccc1	0
Cc1nn(-c2nc3ccccc3s2)c(N)c1Sc1ccc(F)cc1	0
COc1ccccc1-c1ccc(=O)n(CC(=O)NCc2ccc3c(c2)OCO3)n1	40
Cn1c(SCc2nc(-c3ccc(Br)cc3)no2)nnc1-c1ccco1	320
Nc1ccc(S(=O)(=O)c2ccc(Cl)cc2)cc1	40
N#Cc1ccc(-c2csc(NC(=O)C3CC3)n2)cc1	0
CN(Cc1ccccc1)S(=O)(=O)c1ccc(S(=O)(=O)N(Cc2ccc(F)cc2)C2CCCC2)cc1	0
COc1ccc(C(=O)Nc2cc(C(=O)NCCc3ccccc3)ccc2Cl)cc1	0
CC(=O)c1cnc(Nc2nc(C)c3ccccc3n2)nc1C	40
CC(=O)Nc1ccc(/C=N/NC(=O)c2cc3cc(C)ccc3nc2C)cc1	0
Cn1c(=O)[nH]c(=O)c2c1nc(N1CCN(c3ccccc3)CC1)n2CCSc1ncccn1	0
O=P1(O)C=C(c2ccccc2)NC(c2ccccc2)=C1	0
CC(C[N+](C)(C)C)OC(N)=O (stereo not drawn)	0[10 µg/mL]
Cc1cc2ncn(S(=O)(=O)c3ccc(S(=O)(=O)N4CCOCC4)cc3)c2cc1C	0
COC(=O)c1ccc2c(=O)n(CCCN3CCCC3=O)c(=S)[nH]c2c1	40
COc1ccccc1OCCOc1ccccc1/C=N/n1cnnc1	0
O=C(Nc1nnc(-c2ccc3c(c2)CCCC3)o1)C1CCCCC1	40
CC1(C)Cc2ccccc2-c2nnc(-c3ccco3)n21	40
Nc1nc(SCc2nc3scc(-c4ccccc4)c3c(=O)[nH]2)n[nH]1	0
N#C/C(=N\Nc1c(Cl)cccc1Cl)C(=O)NN	0
Cc1ccc(NC(=O)CCC(=O)OCC(=O)c2ccc(-c3ccccc3)cc2)cc1	200
CCOC(=O)C1=C(CN2CCC(C)CC2)NC(=O)NC1c1ccc(Cl)cc1 (stereo not drawn)	0
CN(C)c1ccc(NC(=O)c2ccc(COc3cccc(Cl)c3)o2)cc1	40
CCN(CC)CCCn1c(=S)[nH]c2cc(Cl)ccc2c1=O	320
CCOC(=O)c1[nH]c2ccc(OC)cc2c1N=CN(C)C	0
O=c1[nH]c(NCCO)nc2c1C1(CCCCC1)Cc1ccccc1-2	0
Oc1ccc2ccccc2c1C=Nc1ccc(N2CCOCC2)cc1	40
O=C(NCc1ccccc1)c1cnsn1	?
COCCCNc1oc(-c2ccccc2F)nc1C#N	240
Cc1cc(C(=O)O)ccc1N/C=C1\CCCC(C)C1=O (stereo not drawn)	40

# Among those listed so far, these have bromine.
Molecule	quorum sensing
O=C(Nc1ccc(S(=O)(=O)Nc2ncccn2)cc1)c1ccc(Br)s1	40
O=C(Nc1ccc(Br)cc1F)C1CCCN(S(=O)(=O)c2cnc[nH]2)C1 (stereo not drawn)	0
Cn1c(SCc2nc(-c3ccc(Br)cc3)no2)nnc1-c1ccco1	320

# More results
Molecule	quorum sensing
NC(N)=NCCCCN=C(N)N	0[10 µg/mL]
O=S(=O)(NCc1ccc2c(c1)OCO2)c1cnc[nH]1	40
Cc1ccc(CN2C(=O)c3ccccc3C2C(=O)NCc2cccnc2)cc1 (stereo not drawn)	40
O=C1CC(C(=O)NC2CCCCC2)C(c2ccccc2)O1 (stereo not drawn)	40
COc1ccc(-c2nc(Cn3c(SCc4ccc(F)cc4)nc4ccncc43)c(C)o2)cc1OC	40
Cc1c(NS(=O)(=O)N2CCCCC2)c(=O)n(-c2ccccc2)n1C	0
Cc1c(C(=O)O)nn(-c2ccccc2)c(=O)c1C#N	0
CC(=O)Oc1cc(C(F)(F)F)ccc1C(=O)O	40[10 µg/mL]
CC(C)NC1=C(Cl)C(=O)c2ccccc2C1=O	0
CC1CC(OC(=O)C(O)c2ccccc2)CC(C)(C)N1C (stereo not drawn)	40[10 µg/mL]
O=c1c2ccccc2nc2n1C1(CCCCC1)Cc1ccccc1-2	0
N#Cc1cc2cc3c(cc2nc1SCC(=O)OC1CCCCC1)OCO3	0
CC(=O)NNc1nc(-c2ccccc2)c2cc(Br)ccc2n1	0
O=C(O)C1C2CCC(O2)C1C(=O)NCCC1=CCCCC1 (stereo not drawn)	40
O=C(CN1CCN(c2ccccc2F)CC1)c1c[nH]c2ccc(F)cc12	0
Cc1ccc(N=Cc2ccc[nH]2)c(O)c1	0
CCOC(=O)N1CCN(c2c(Nc3ccc4c(c3)OCCO4)c(=O)c2=O)CC1	40
CCn1c(CNC(=O)Cc2ccc(OC)cc2)nnc1SCC(=O)c1ccc(Br)cc1	0
CC(NC(=O)Nc1ccccc1)C(c1cccs1)N1CCN(C)CC1 (stereo not drawn)	0
COc1ccc(N2C(=O)C3CCCN3C2c2cccc(Br)c2)cc1 (stereo not drawn)	0
COc1ccc2[nH]c(C)c(CCN3C(=O)OC(C)(C)C3(C)O)c2c1 (stereo not drawn)	0
CCOC(=O)c1cc(-c2ccc(/C=N\n3cnnc3)o2)ccc1Cl	0
COc1cccc(/C=N/Nc2ncnc(N)c2[N+](=O)[O-])c1OC	0
COC(=O)Cn1ncc2c(C)n(Cc3ccccc3)c(C)c2c1=O	40
Cc1c(C(=O)Nc2c(C)n(C)n(-c3ccccc3)c2=O)oc2ccccc12	0
COC(=O)[C@H](CCSC)NC(=O)NCCc1ccc(F)cc1	0
CCN(C(=O)CN1CCN(c2ccc(O)cc2)CC1)c1c(N)n(Cc2ccccc2)c(=O)[nH]c1=O	40
CCCc1cc(=O)n2[nH]c(Cc3ccccc3)nc2n1	200
O=C(CCC(=O)Nc1ccccc1)N/N=C/c1ccco1	0
Cc1cccc2c1NC(C)CC2C (stereo not drawn)	0
CCOC(=O)CNc1ccc2c(c1)OCO2	0
O=C(NCc1nnc(SCC(=O)N2CCC(Cc3ccccc3)CC2)o1)c1ccccc1F	?
CCOC(=O)N1CCN(C(=O)CSCC(=O)Nc2nc(-c3ccc(-c4ccccc4)cc3)cs2)CC1	240
NS(=O)(=O)c1ccc(CCNC(=O)CNC(=O)C2CCCCC2)cc1	0
CCOC(=O)C1=C(N2CCCCC2)c2cc3c(n2C1=O)CCCC3	0
CCOc1ccc(CCNC(=O)c2oc3c(c2C)-c2[nH]ncc2CC3)cc1OCC	0
O=C(/C=C/c1ccc(O)c(O)c1)O[C@@H]1C[C@](O)(C(=O)O)C[C@@H](O)[C@H]1O	40[10 µg/mL]
O=C(NCc1ccc2c(c1)OCO2)C1CCCN(S(=O)(=O)c2cccc3cccnc23)C1 (stereo not drawn)	0
CCCCNC(=O)Cn1c(=O)oc2cc(S(=O)(=O)N3CC(C)CC(C)C3)ccc21 (stereo not drawn)	0
COC(=O)/C(=C\Nc1ccccc1N)c1ncc(C(F)(F)F)cc1Cl	40
CCn1cc(C(=O)O)c(=O)c2cnc(N3CCCC3)nc21	0[10 µg/mL]
C=CCOc1cccc(C2C(C(=O)c3ccc(C)o3)=C(O)C(=O)N2Cc2ccncc2)c1 (stereo not drawn)	40
Cc1cccc(C)c1OCc1nnc(SCC(=O)Nc2nccs2)o1	0
CCn1cc(C(=O)O)c(=O)c2cc3c(cc21)OCO3	0[10 µg/mL]
CC(C)NCC(O)c1ccc2ccccc2c1 (stereo not drawn)	40[10 µg/mL]
CNC(=O)c1ccc(Oc2ccc(C(=O)NC)cc2)cc1	0
Cc1ccc(CNC(=O)CCS(=O)(=O)c2ccc(Br)s2)cc1	0
Cc1ccc(-n2c(Cc3cccn3C)nnc2SCC(=O)Nc2cc(C)on2)cc1	40

# Given as labelled records: entries from further up
CCn1cc(C(=O)O)c(=O)c2cc3c(cc21)OCO3
  quorum sensing = 0[10 µg/mL]

Cc1ccc(CNC(=O)CCS(=O)(=O)c2ccc(Br)s2)cc1
  quorum sensing = 0

O=C(NCc1ccc2c(c1)OCO2)C1CCCN(S(=O)(=O)c2cccc3cccnc23)C1 (stereo not drawn)
  quorum sensing = 0

COC(=O)/C(=C\Nc1ccccc1N)c1ncc(C(F)(F)F)cc1Cl
  quorum sensing = 40

# More compounds follow:
Molecule	quorum sensing
O=C(NCCN1C(=O)C2C3C=CC(C3)C2C1=O)Nc1cccnc1 (stereo not drawn)	0
COc1ccc(-n2c(Cc3cccn3C)nnc2SCC(=O)Nc2cccc(Cl)c2)cc1	0
COc1ccc(S(=O)(=O)NCc2ccccn2)cc1	280
COc1ccc(C(=O)CSc2nnc(C3CCCCC3)n2N)c(OC)c1	0
CNC(=O)c1c[nH]n2c(=O)c(Cc3ccccc3F)c(C)nc12	0
C#C[C@]1(O)CC[C@H]2[C@@H]3CCC4=CC(=O)CC[C@@H]4[C@H]3CC[C@@]21C	0[10 µg/mL]
NCCc1ccn[nH]1	0[10 µg/mL]
CSc1ccc(C2NC(=O)c3c(sc4c3CCN(C)C4)N2)cc1 (stereo not drawn)	320
Cc1nn(C(=O)N2CCCCC2)c(C)c1CN1C(=O)c2ccccc2C1=O	0
CCOC(=O)N1CCN(C(=O)CSc2nc3c([nH]c4ccccc43)c(=O)n2C)CC1	40
Cc1cc(N2C(=O)CCC2=O)ccc1NC(=O)c1cccs1	0
CCc1ccc(C2CC(c3ccccc3Cl)Nc3nc(N)nn32)cc1 (stereo not drawn)	0
O=C(Nc1cnc2ccccc2c1)c1ccncc1	40
CCOc1cccc(-c2nnc3n2N=C(c2cc(OC)ccc2OC)CS3)c1	0
Cc1ccc2occ(C(c3nnnn3Cc3ccccc3)N3CCOCC3)c(=O)c2c1 (stereo not drawn)	0
C=CCc1c(C)nc(C)nc1N/N=C/c1ccc(F)cc1	0
CC1=C(C(=O)OC(C)C)C(c2c(O)ccc3ccccc23)NC(=O)N1 (stereo not drawn)	0
CCc1ccc2c(c1)CCCN2C(=O)c1ccccc1C(=O)O	40
Cc1sc(NC(=O)c2ccco2)nc1-c1ccccc1	0
CCOC(=O)c1oc2ccccc2c1NC(=O)c1cc(OC)cc(OC)c1	0
Cc1ccc(NC(=O)N2CCC(C(=O)NCc3ccccc3)CC2)cc1	0
Cc1cc(NC(=O)COn2nnc3ccc(Cl)cc32)no1	0
CC(C)N(CCC(C(N)=O)(c1ccccc1)c1ccccn1)C(C)C (stereo not drawn)	0[10 µg/mL]
NC(=O)C1CCN(C(=O)CSc2nc3ccccc3s2)CC1	360
N#Cc1nc(COc2ccc(Cl)cc2Cl)oc1N1CCOCC1	40
CC(NC(=O)c1ccccc1)C(c1cccs1)N1CCOCC1 (stereo not drawn)	0
COc1ccc(C2C(C(N)=O)=C(C)Nc3nc(-c4ccccc4Cl)nn32)c(OC)c1 (stereo not drawn)	40
CCN[C@@H]1C[C@H](N)[C@@H](O[C@H]2OC(CN)=CC[C@H]2N)[C@H](O)[C@H]1O[C@H]1OC[C@](C)(O)[C@H](NC)[C@H]1O	0[10 µg/mL]
c1ccc2nc3c(cc2c1)CCCCCC3	40
CC(C)NC(=O)C(=O)NCCc1ccc(Cl)cc1	0
Cc1[nH]c2ccc(CNS(=O)(=O)c3ccc(S(=O)(=O)N4CCOCC4)cc3)cc2c1C	40
COc1ccc(OC)c(NC(=O)c2cn(C)c(=O)c3cc(OC)c(OC)cc23)c1	0
COC(=O)CCC(=O)Nc1ccc(NC(=O)CCC(=O)OC)cc1	0
CS(=O)(=O)N1N=C(c2ccc(Br)cc2)CC1c1ccc2c(c1)OCO2 (stereo not drawn)	40
COC(=O)c1c(NC(=O)c2ccoc2C)sc2c1CCC2	40
Cc1csc(NC(=O)CSc2nnc(Cc3cccn3C)n2-c2ccc(F)cc2)n1	0
Cc1ccc(S(=O)(=O)NCC(=O)Nc2ccc(C(F)(F)F)cc2)cc1	40
CC1CCCC(NC(=S)Nc2ccc(SC(F)F)cc2)C1C (stereo not drawn)	40

# The list is partial; rates above refer to the full screens.
